KSHV LANA nucl = inhibitors of KSHV LANA binding to nucleosomes; FITC-LANA1-23 / chicken nucleosome fluorescence polarization; active compounds read low; 51,000 compounds, 0.3% hits; z-score (test concentration not listed); AID 720717;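 active = both repeat wells score below -2 in polarization z-score versus plate sample wells, excluding overly bright wells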;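 note: 100 nL library stock added to about 30 µL; numbers are from one replicate; some results filed as inactive read as strong as hits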
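System – purified chicken nucleosomes with FITC-labelled LANA N-terminal peptide (1-23) · Amount – 240 nM purified chicken nucleosomes (480 nM peptide binding sites), final · Also added – 50 nM FITC-LANA1-23 probe · Medium – TEN-BT buffer, pH 7.5 · Incubation – compound with peptide–nucleosome mix 10–45 min at room temperature · Detection – fluorescence polarization, ex 480 nm, em 535 nm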
BasE inh = BasE siderophore biosynthesis inhibition; purified BasE, fluorescence polarization binding displacement; inhibition, % (concentration not given with the values); 84,000 compounds, 0.1% hits;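 active = both replicates above 25% with normal brightness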;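 note: 0% = negative plate control signal and 100% = positive plate control signal; stock transfer was 100 nL into about 30 µL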
* = called active by the depositor; / = no result given; & = joins results of further samples.

SMILES	KSHV LANA nucl	BasE inh
CCCCc1cc(=O)oc2cc(OCC(N)=O)ccc12	/	1.2
CCC(=O)N(C)c1nc(-c2ccc(Cl)s2)cs1	/	2.2
Cn1c2ccc(N=Cc3ccccc3O)cc2c2nc3ccccc3nc21	/	-1.2
CCc1nn2c(=O)cc(CN3c4ccccc4CC3C)nc2s1 (stereo unspecified)	/	1.9
COc1ccc(CCN(C)C(C)C(=O)NC2CCCC2)cc1OC (stereo unspecified)	/	-0.3
CC1CCN(Cn2nc(-c3ccccc3)oc2=S)CC1	/	-0.3
Cc1ccc(S(=O)(=O)NC(=O)Oc2ccccc2N2CCOCC2)cc1	/	0.5
CCN(CC)C(=S)Nc1ccc2nc3n(c(=O)c2c1)CCCCC3	-0.57	1.9
CS(=O)(=O)c1[nH]nc(-c2ccccc2Cl)c1C#N	-0.39	0.2
CSc1nc2ccccc2c(=O)n1CC(=O)C(C)(C)C	/	1.7
CCCOc1cccc(C(=O)NCc2cccnc2)c1	-0.26	0.8
Cc1cc(=O)[nH]c2c1c(=O)[nH]n2C1CC(C)N(C)CC1C (stereo unspecified)	0.01	-0.5
CCN(CC)S(=O)(=O)c1cccc(C(=O)OCc2cc(=O)n3cc(C)ccc3n2)c1	/	-0.9
O=C1c2ccccc2C(=O)N1CCc1c[nH]c2ccccc12	0.032	1.9
COc1cc(NC(=O)CNCC(C)C)cc(OC)c1OC	/	0.5
CN1CCN(S(=O)(=O)c2ccc(N3CCN(c4ccccc4Cl)CC3)nc2)CC1	/	1.6
O=C(O)c1ccccc1Nc1cccc(C(F)(F)F)c1	0.5&0.38&0.34&-0.55&0.78	1.5&-1.2&1.7
O=C(Nc1ccccn1)Nc1cccs1	-0.09	5.8
O=C(CSc1nnc2n1CCCCC2)Nc1cccc2ccccc12	/	-1.5
COc1ccc(-c2noc(NCC3CCCO3)n2)cc1 (stereo unspecified)	0.33	1.4
CN(C)S(=O)(=O)c1cccc(C(=O)N=c2sc3ccccc3n2C)c1	/	0.3
Clc1ccc(OCCBr)c(Cl)c1	-0.83	/
Cc1nnc(SCC(=O)NCCc2ccco2)c2nn(-c3ccccc3)c(C)c12	/	-0.3
CCN(CC)S(=O)(=O)c1cccc2cc(C(=O)O)c(O)cc12	/	0.4
O=C(c1c[nH]c2ccccc12)N1CCN(c2ccccc2)CC1	0.55	/

Later entries.
SMILES	KSHV LANA nucl	BasE inh
COc1ccc(OCCNC(=O)c2nccnc2C(=O)O)cc1	/	0.7
Cn1ccnc1SCC(=O)N1Cc2ccccc2CC1C(=O)O (stereo unspecified)	/	-0.9
COc1c(Cl)cc(Cl)cc1CNCC1CCCO1 (stereo unspecified)	-0.76	0.3
O=C(CC(c1cccs1)N1Cc2ccccc2C1=O)NCCN1CCOCC1 (stereo unspecified)	0.61	-0.5
O=C(O)[C@@H]1CCCCN1C(=O)OCC1c2ccccc2-c2ccccc21	0.55	2.9
O/N=C/c1c(O)ccc2ccccc12	-0.55	2.8
CC(C)(C)C(N)=NC#N	/	-2.0
C[N+](C)(C)CCCCCC[N+](C)(C)C	0.086&0.64	-3.6&-1.8
O=C(O)C1C2C=CC(O2)C1C(=O)Nc1ccccc1 (stereo unspecified)	0.071	0.1
Cc1cc(CNC(C)c2ccncc2)c(C)n1-c1ccnn1C(C)C (stereo unspecified)	/	0.1
CC(Sc1nc2sccc2c(=O)n1C)C(=O)Nc1ccc2c(c1)OCO2 (stereo unspecified)	/	0.1
COc1ccc(C2=CSC3=C(C(=O)c4cc(OC)c(OC)c(OC)c4)CCN23)cc1	/	0.3
CCCc1cc(=O)[nH]c(SCCOC(=O)c2ccccc2)n1	/	0.0
CCOC(=O)c1cc2c(ccn2C)n1CC(=O)N(c1ccccc1)c1ccccc1	0.89	0.2
O=C(CSc1nnc(-c2cc3ccccc3[nH]2)n1-c1ccccc1)N1CCNC1=O	/	-13
CCCn1c(N2CCN(C(=O)N3CCCCC3)CC2)nc2ccccc21	-0.64	0.2
NCCCN1CCCc2ccccc21	1.8	-2.0
Cc1cc(C(=O)OC2CCOC2=O)c2ccccc2n1 (stereo unspecified)	/	2.4
CC1(C)CC(=O)C2=C(C1)Nc1[nH]c(=S)[nH]c(=O)c1C2c1cccs1 (stereo unspecified)	/	1.1
O=C(CSc1nnc(COc2ccccc2)o1)N1CCCC1	0.48	2.3
CC(=O)Nc1ccc2sc(C)nc2c1	0.1	-0.6
O=C(NCCc1nc2ccccc2[nH]1)c1[nH]nc2c1CCc1ccccc1-2	-0.39	0.9
NOCc1cccc(C(F)(F)F)c1	-0.019	/
CCOc1ccc(N2CC(C#N)=C3c4cc(OC)c(OC)cc4CCN3C2)cc1	2	-2.0
CSc1nc2ccc(NC(=O)c3ccc4ncsc4c3)cc2s1	-0.38	3.0

Complete entries, looked up by structure. Values in the order: KSHV LANA nucl | BasE inh
O=C(NCCc1nc2ccccc2[nH]1)c1[nH]nc2c1CCc1ccccc1-2 across the screens: -0.39 | 0.9
O=C(CSc1nnc(-c2cc3ccccc3[nH]2)n1-c1ccccc1)N1CCNC1=O across the screens: / | -13

Next part:
SMILES	KSHV LANA nucl	BasE inh
CCCCCC(=O)Nc1ccc2oc(-c3cccnc3)nc2c1	-0.11	-3.1
CCc1ccc(N(C2C=CS(=O)(=O)C2)S(=O)(=O)c2ccccc2)cc1 (stereo unspecified)	0.097	4.4
COc1cccc(OC)c1CN(C)C(=O)c1cnc(Oc2ccccc2)cc1C(F)(F)F	/	-0.5
CSc1nn(C)c2cnn(C)c(=O)c12	/	-0.6
c1ccc2c(c1)ncn2-c1ncnc2sc3c(c12)CCCC3	-0.84	0.4
O=C(CO/N=C/c1ccco1)N1CCN(S(=O)(=O)c2ccc3ccccc3c2)CC1	/	1.6
COc1cccc(OCCCSC(C)C)c1	-0.029	-0.9
CN(C)c1ccc(CN(CC2CCCO2)S(=O)(=O)c2ccccc2C#N)cc1 (stereo unspecified)	/	1.9
CCc1ccc2c(C)cc(=O)oc2c1	-0.64	/
Cc1cc(N2CCCCC2)nc2ccc(NC(=O)CCC(=O)N3CCC(C)CC3)cc12	-1.7	4.2
CCOC(=O)c1[nH]c(CSc2nnc(-c3ccco3)n2-c2ccccc2)c(C(=O)OCC)c1C	/	1.3
COc1ccc(OC)c(C2(O)CSC(=Nc3cccnc3)N2C2CC2)c1 (stereo unspecified)	/	-0.3
Cc1cc(C(C)(C)CC(C)(C)C)ccc1OCCOCC[N+](C)(C)Cc1ccccc1	1.4&0.7&-0.64	-2.3&-3.9
Cc1nn(CC(=O)Nc2ccc3c(c2)oc2ccccc23)c(=O)c2ccccc12	-0.88	3.0
N#Cc1c(N2CCOCC2)nc2c3c(nc4c(c13)CC(=O)N4c1cccc(Cl)c1)NC1(CCCCC1)N2	/	-1.7
COc1ccc(OCc2nnc(SCC(=O)O)n2N)cc1	-0.66	0.2
O=C(O)C1C2C=CC(O2)C1C(=O)N1CCN(c2ccccc2)CC1 (stereo unspecified)	-1	-1.9
CCS(=O)(=O)c1ccc2oc(SCC(=O)NCc3ccccc3)nc2c1	/	0.0
Cc1cccc(C)c1-n1nnnc1S(=O)(=O)Cc1ccccc1Cl	0.56	3.8
N#CC(C(=O)c1cccc(N2C(=O)CCC2=O)c1)c1ccccn1 (stereo unspecified)	/	0.9
Cc1c(CN2CCOCC2)c(=O)n(-c2ccccc2)n1C	-0.36	1.2
O=C(Nc1cccc(C(F)(F)F)c1)c1cc(-c2ccccc2)on1	-0.11	2.8
O=C(O)c1n[nH]nc1-c1ccccc1	0.33	-2.6
O=C(NCC1COc2ccccc2O1)c1ccc(NC(=O)c2ccc(Br)o2)cc1 (stereo unspecified)	-0.43	3.5
Cc1ccccc1NC(=O)Nc1nnc(N2CCCC2)s1	0.37	1.1

Later entries
SMILES	KSHV LANA nucl	BasE inh
O=C(Nc1nn2cnnc2s1)C12CC3CC(CC(O)(C3)C1)C2	/	3.1
COc1ccc(CC(=O)NN2C(=O)CSCC2=O)cc1OC	/	-2.7
COC(=O)c1ccc(NC(=O)CNC(=O)C2CCCCC2)c(C)c1	0.099	4.0
CC(C)CN1CCOC(CNC(=O)Nc2ccc(Cl)c(Cl)c2)C1 (stereo unspecified)	/	-1.9
O=C(Nc1ccc2c(c1)oc1ccccc12)c1cccs1	-0.2	0.8
CC1CN(C(=O)CSc2ncc(C(F)(F)F)cc2Cl)CC(C)O1 (stereo unspecified)	/	-4.8
COc1cc(/C=C/C(=O)OC2CCCCC2=O)cc(OC)c1OC (stereo unspecified)	/	-1.7
CC1=CC(=C(C#N)C#N)C=C(C)N1c1cccc(F)c1	/	-0.5
N#CCc1nc(-c2ccc(Cl)c(Cl)c2)cs1	/	-16
CC1CCCC(C)N1CC(O)COc1ccc(Cl)cc1 (stereo unspecified)	/	-5.1
CN(C)S(=O)(=O)c1cccc2nsnc12	-1	1.0
CC1CC(C)CN(c2cnn(-c3ccccc3)c(=O)c2Cl)C1 (stereo unspecified)	/	-2.3
CC(=O)Nc1ccc(CN2CCCCC2)cc1	0.95	0.8
CCCn1c(N)c(C(=O)CSc2nc3cc(Cl)ccc3c(=O)n2C2CCCC2)c(=O)[nH]c1=O	/	1.3
COC(=O)CSC(=S)N1CCCC(C)C1 (stereo unspecified)	/	0.7
CC1=NC(C(F)(F)F)(C(F)(F)F)C2=C(CC(C)(C)CC2=O)N1Cc1ccco1	-0.58	1.0
CCn1c(N)c(C(=O)NCC2CCCO2)sc1=S (stereo unspecified)	-0.61	0.6
Cc1nn(-c2ccccc2)c(N2CCCCC2)c1/C=N/NC(=O)c1ccncc1	/	1.5
CC(=O)Nc1ccc(-c2nc3cc(Cl)ccc3o2)cc1	-0.4	0.4
CN(C)C(=O)CSc1nc2scc(-c3ccccc3)c2c(=O)[nH]1	/	-6.8
CCc1cc(C(=O)c2ccc(OC)cc2)c(NC(=O)CN2CCN(C)CC2)s1	1	-1.2
Cc1cc(C)c2ccc(O)cc2n1	/	1.9
Cc1cc(C)c2c(-n3cccc3)nn(CCCC(=O)NC3CCCCCC3)c2n1	0.85	2.0
N/C(=N\OCC(=O)N1CCOCC1)c1nonc1N	-0.94	0.2
Cc1ccc(OCC(=O)NC2CCS(=O)(=O)C2)cc1 (stereo unspecified)	/	3.4

Later entries
SMILES	KSHV LANA nucl	BasE inh
O=C1C2C3C=CC(C3)C2C(=O)N1CNc1ccc(O)cc1 (stereo unspecified)	/	2.1
O=C(c1ccc(CSc2ncn[nH]2)cc1)N1CCN(S(=O)(=O)c2ccc3c(c2)CCC3)CC1	/	0.1
CCn1cc(C(=O)O)c(=O)c2cc(F)c(N3CCN(C(=O)c4ccc(F)cc4)CC3)cc21	/	-2.0
COc1ccc(C(=O)CSc2nnc(CCC(=O)O)c(=O)[nH]2)cc1OC	/	-1.2
N#Cc1ccc(CSc2nnc(CNc3ccccc3)o2)cc1	0.039	-0.9
O=C1/C(=C/c2cccnc2)c2ccccc2N1c1ccccc1	/	2.3
N/C(Cc1cccc2ccccc12)=N\OC(=O)c1ccc(Br)o1	-0.17	5.5
C=CCN1CN(CC=C)CN(CC=C)C1	-0.78	1.9
CC(C)(C)NC(=O)N1CCn2cccc2C1c1cccnc1 (stereo unspecified)	1.7	-0.1
CC(C)(C)c1ccc(OCCCSC#N)cc1	0.6	2.2
NC(=S)Cc1ccc(-c2csnn2)cc1	0.19	-1.6
Cc1cccc(Nc2nc3nonc3nc2N/N=C\c2cccs2)c1C	-0.28	1.6
COc1ccccc1OCCNc1ncnc2sccc12	/	-1.4
CCCc1c(O)nc(SCCC(=O)O)[nH]c1=O	-0.29	1.7
CCCCN1C(=O)S/C(=C/c2ccc(OC)cc2)C1=O	-0.45	-0.1
CCC(C)(C)NS(=O)(=O)c1ccccc1OC	/	-1.5
CC(=O)Nc1cccc(N2C(=O)CCC2=O)c1	0.092	3.1
COC(=O)c1cc(C(=O)OC)c2ccccc2n1	-0.95	1.8
O=C1c2ccccc2C(=O)N1c1ccc(OC(F)(F)F)cc1	/	1.0
Cc1ccc(OCc2nc(C#N)c(NCCCN3CCOCC3)o2)cc1	0.2	-3.2
CCn1c(=O)c(C)nc2cc(C(=O)O)ccc21	/	-2.2
CCc1ccc(N2Cc3ccccc3C2)cc1	-0.27	-1.9
Nc1c(S(=O)(=O)Cc2ccccc2)sc2nc3c(cc12)CCCC3	0.58	-1.7
O=C(CCc1nnc2ccc(N3CCCCC3)nn12)NCCc1c[nH]c2ccccc12	1.4	-2.2
CCOc1ccc(-n2ccc3nc(C)c(C(=O)O)cc3c2=O)cc1	-0.58	-0.3

Entries shown so far that have a COOH group, in the order listed:
SMILES	KSHV LANA nucl	BasE inh
O=C(O)c1ccccc1Nc1cccc(C(F)(F)F)c1	0.5&0.38&0.34&-0.55&0.78	1.5&-1.2&1.7
CCN(CC)S(=O)(=O)c1cccc2cc(C(=O)O)c(O)cc12	/	0.4
COc1ccc(OCCNC(=O)c2nccnc2C(=O)O)cc1	/	0.7
Cn1ccnc1SCC(=O)N1Cc2ccccc2CC1C(=O)O (stereo unspecified)	/	-0.9
O=C(O)[C@@H]1CCCCN1C(=O)OCC1c2ccccc2-c2ccccc21	0.55	2.9
O=C(O)C1C2C=CC(O2)C1C(=O)Nc1ccccc1 (stereo unspecified)	0.071	0.1
COc1ccc(OCc2nnc(SCC(=O)O)n2N)cc1	-0.66	0.2
O=C(O)C1C2C=CC(O2)C1C(=O)N1CCN(c2ccccc2)CC1 (stereo unspecified)	-1	-1.9
O=C(O)c1n[nH]nc1-c1ccccc1	0.33	-2.6
CCn1cc(C(=O)O)c(=O)c2cc(F)c(N3CCN(C(=O)c4ccc(F)cc4)CC3)cc21	/	-2.0
COc1ccc(C(=O)CSc2nnc(CCC(=O)O)c(=O)[nH]2)cc1OC	/	-1.2
CCCc1c(O)nc(SCCC(=O)O)[nH]c1=O	-0.29	1.7
CCn1c(=O)c(C)nc2cc(C(=O)O)ccc21	/	-2.2
CCOc1ccc(-n2ccc3nc(C)c(C(=O)O)cc3c2=O)cc1	-0.58	-0.3

Source: PubChem (ICCB-Longwood Screening Facility, Harvard Medical School)

These rows are one share of the data; count on the stated rates, not on these rows.
